# From PubChem
# Menin-MLL FL inh: menin-MLL binding inhibition, fluorescein peptide; Fluorescence polarization, fluorescein-MLL peptide displacement from menin; FP activity change, % at 61.4 µM; 290,000 tested, under 10 active; inconclusive = falling polarisation curve, or a change in total fluorescence; inactive = total fluorescence flat and polarisation flat or rising; no compound was filed as active; the % refers to the polarisation; negative = inhibition;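 note: % of control where 0% means no effect; inhibitors lower the polarisation; unlabelled MLL peptide was the positive control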
# D2 potentiator: human D2 receptor positive allosteric modulation; P14416; DiscoveRx D2 beta-arrestin cells, luminescence, 90 min; 100% = 57 uM dopamine signal; potentiation, % (concentration not given with the values); 360,000 compounds, 0.23% hits; active = potentiation of 50% or more; inconclusive = 30% to 50%; inactive = 30% or less;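 note: tested on top of an EC20 dose of dopamine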
#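 PathHunter beta-arrestin assay in DiscoveRx D2 cells. Compounds were added with an EC20 of dopamine (50 nM final) for 90 min at 37 deg C. Luminescence was read 1 h after detection reagent, with 57 uM dopamine as the EC100 control.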
# gsp antagonist: antagonizes gsp, the McCune-Albright syndrome mutation | gsp-mutant cells, cAMP HTRF, 30 min; control for the full effect not named in the record | Potency, µM (doses to about 76.9 µM), inactives show at the top dose activity change, negative = inhibition, hits mostly inhibitors | 340,000 compounds, 0.4% hits | AID 624288; active = falling curve of any shape with a large fitted effect; inconclusive = falling curve, mostly with a smaller effect; inactive = flat or rising curve; cell line not stated here;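 note: intracellular cAMP measured with PDE inhibitor Ro 20-1724 present during compound exposure; potency is the fitted concentration of half-maximal effect; % is set by controls: 0 for no effect and ±100 for the full control effect; nearly all actives have a fitted effect of over 65% in size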
#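 HTRF cAMP measurement after 30 min RT detection following 30 min, 37C compound treatment alongside […] (added as 300 uM solution) in G418-selected cells seeded at 2000/well and grown 16–24 h.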
# gsp agonist: agonists of gsp mutant (McCune-Albright syndrome). Potency, µM (highest dose often 76.9 µM), without a hit: at the highest dose activation (cAMP increase), usual class: activators. gsp mutant cells, cAMP HTRF, 30 min; control for the full effect not named in the record. 340,000 compounds, 0.13% hits. AID 624287; active = well fitted activation curve with a large enough effect; inconclusive = small, poorly fitted or top-dose-only effect, or another doubt; inactive = no such curve, though single readings can be large or run the other way; cell line not stated here;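 note: phosphodiesterase inhibitor Ro 20-1724 added with compounds to block cAMP breakdown; potency is the fitted concentration of half-maximal effect; nearly all actives have a fitted effect of over 60% in size; about a fifth of the inactives were tested at one dose only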
#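 Cells in DMEM/10% FBS with G418 were pretreated with compounds in DMSO plus […] (300 uM stock) for 30 min at 37C. cAMP was measured by HTRF (cAMP-d2 plus anti-cAMP antibody-K) after 30 min at room temperature.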
# ClpP mod: qHTS Assay for Activators of ClpP. Potency, µM (top dose mostly 57.5 µM), inactives show top-dose activity change, negative = active. 340,000 compounds, 1.9% hits. purified B. subtilis ClpP, FRET peptide cleavage, 20 min. ATP-dependent Clp protease proteolytic subunit (Bacillus subtilis (strain 168)), P80244; active = well fitted falling curve with a large enough effect; inconclusive = small, poorly fitted or top-dose-only effect; inactive = no such curve, though single readings can be large or run the other way; note: potency is the fitted concentration of half-maximal effect; the source files actives as falling curves though it sought activators and does not explain the sign; nearly all actives have a fitted effect of over 65% in size; many hits overshoot -100%
# Target sequence (P80244 whole entry, looked up): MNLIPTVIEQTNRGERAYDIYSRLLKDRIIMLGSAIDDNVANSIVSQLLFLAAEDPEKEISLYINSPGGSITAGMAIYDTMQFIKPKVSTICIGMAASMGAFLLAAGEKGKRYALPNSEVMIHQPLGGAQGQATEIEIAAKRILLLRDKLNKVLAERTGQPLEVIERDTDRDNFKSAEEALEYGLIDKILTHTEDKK
#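 FRET quenching reversal measured ClpP activation: 10 microg/mL B. subtilis ClpP at pH 8 with the FRET-FV decapeptide, read at 430 nm after 320 nm excitation. The 20-min minus 0-min signal was scaled between DMSO/no-enzyme wells and ADEP (5.8 microM final).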
# TRPV1 PAM: human TRPV1 potentiation. 320,000 compounds, 0.02% hits. AID 540277. Q8NER1. potentiation, % at 8.33 µM. TRPV1-expressing cells, Fluo-8 calcium influx, capsaicin EC20 potentiation; host cell line not named in the record; control for the full effect not named in the record; active means potentiation above 80%; inconclusive means 30% to 80%; inactive means below 30%; note: 0% is about no effect
# Target sequence (Q8NER1 whole entry, looked up): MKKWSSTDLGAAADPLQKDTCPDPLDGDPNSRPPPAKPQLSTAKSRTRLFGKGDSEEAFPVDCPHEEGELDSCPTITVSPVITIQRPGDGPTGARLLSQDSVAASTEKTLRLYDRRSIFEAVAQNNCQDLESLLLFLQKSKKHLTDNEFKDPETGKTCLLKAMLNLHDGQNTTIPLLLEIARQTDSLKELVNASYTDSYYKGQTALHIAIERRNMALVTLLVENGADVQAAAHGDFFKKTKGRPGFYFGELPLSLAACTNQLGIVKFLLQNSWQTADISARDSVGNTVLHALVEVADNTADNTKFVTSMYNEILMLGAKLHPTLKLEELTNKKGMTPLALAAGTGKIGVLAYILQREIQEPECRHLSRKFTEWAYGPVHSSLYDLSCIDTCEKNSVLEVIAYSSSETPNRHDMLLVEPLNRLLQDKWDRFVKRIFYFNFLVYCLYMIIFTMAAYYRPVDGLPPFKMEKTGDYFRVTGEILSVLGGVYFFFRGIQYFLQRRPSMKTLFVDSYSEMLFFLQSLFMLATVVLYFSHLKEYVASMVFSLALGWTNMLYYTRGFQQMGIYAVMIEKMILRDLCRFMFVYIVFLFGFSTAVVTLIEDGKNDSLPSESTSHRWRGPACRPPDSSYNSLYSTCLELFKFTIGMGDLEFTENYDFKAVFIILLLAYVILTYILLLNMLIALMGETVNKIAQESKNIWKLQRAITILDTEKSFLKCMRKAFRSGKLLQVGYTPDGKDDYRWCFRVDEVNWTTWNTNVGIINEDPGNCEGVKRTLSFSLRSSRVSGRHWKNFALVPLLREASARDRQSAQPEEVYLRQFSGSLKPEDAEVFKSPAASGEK
#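 TRPV1-expressing cells were cultured overnight at 35.5C and loaded with Fluo-8 calcium dye for 40 to 90 min at room temperature. After a 10 s baseline, compound was added and calcium influx was read kinetically for 3 min (ex 480/em 520 nm).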
# Sfp PPTase inh: Sfp phosphopantetheinyl transferase inhibition; Potency, µM, for inactives: max response, negative = inhibition, most hits filed as inhibitors; Q9F4F7; Biochemical Sfp PPTase activity, qHTS; 310,000 compounds, 3.5% hits; active = well fitted inhibition curve with a large enough effect; inconclusive = small, poorly fitted or top-dose-only effect, or another doubt; inactive = no such curve, though single readings can be large or run the other way;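 note: the enzyme is Sfp with the accession as filed and its product quenches rhodamine fluorescence; potency is the fitted concentration of half-maximal effect; 0% = enzyme reaction without inhibitor and -100% = no enzyme wells; top concentration of the series not given in the record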
#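 Reaction rates are the 30-min fluorescence difference (ex 525, em 598 nm) in wells containing 15 nM Sfp, 5 uM rhodamine-CoA and 12.5 uM BHQ-2-YbbR at pH 7.6 with 10 mM MgCl2.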
# Numbers without * were called inactive; ? = inconclusive; . = not tested or not shown; & = joins results of further samples; [ ] = dose if it differs, or a comment.
# Screens in order: Menin-MLL FL inh, D2 potentiator, gsp antagonist, gsp agonist, ClpP mod, TRPV1 PAM, Sfp PPTase inh
> Clc1ccc(-c2nnc(-c3cccc4ccccc34)o2)cc1
    ., -4, -1%, -15%, ., ., .
> CC1CCCCC1NCC(=O)Nc1ccccc1-c1ccccc1 (stereo not given)
    -2.1, -12, 2%, ?, 1.1%, -10, 79µM*
> O=C(N1CCN(c2cccc(Cl)c2)CC1)C1(c2cccs2)CCOCC1
    4.2, 3, ?, 10%, -1.5%, 6, -7%
> O=C(NCc1ccccc1Cl)c1ccc2nnsc2c1
    1.8, -1, -2%, -30%, ., -5, 8%
> Cc1cc(S(=O)(=O)N2CCN=C2c2ccccc2)c(C)cc1Cl
    0.5, 4, 5%, -5%, 0.5%, -6, -15%
> CCOc1ccc(NC(=O)CSc2nncn2C)cc1
    -4.5, -2, -2%, 0%[15.4 µM], 0.7%, -1, 6%
> O=C1OC(Nc2nc(-c3ccc(F)cc3)cs2)c2ccccc21 (stereo not given)
    -7.7, 5, -25%, 4%, ., -3, -9%
> C[C@H](NC(=O)c1nc[nH]c1C(=O)N[C@@H](Cc1ccccc1)C(=O)OCc1ccccc1)c1ccccc1
    -0.5, -8, -7%, -3%, -1.2%, 17, 23%
> CCOC(=O)C1CCCN(CCC(=O)Nc2ccccc2C)C1 (stereo not given)
    1.5, -4, 3%, -15%, 1.2%, -9, -16%
> O=C(OCC(=O)c1c[nH]c2ccccc12)c1ccco1
    -0.6, 8, -4%, 6%, -2.0%, -10, -2%
> Cc1cccc(Oc2coc3cc(OC(=O)c4cncc(Br)c4)ccc3c2=O)c1
    6.2, 1, 3%, 16%, -6.1%, -1, -21%
> CC(NCc1nc2ccccc2n1C)C12CC3CC(CC(C3)C1)C2 (stereo not given)
    -0.8, -12, 1%, -7%[15.4 µM], -1.0%, -6, 15%
> COC(=O)c1ccc(C[n+]2ccccc2)cc1
    2.0, -4, 3%, -3%[15.4 µM], -1.3%, 6, 16%
> Cc1cccc(-c2c3c(=O)n(C)c(=O)n(C)c3cn2-c2ccc(O)cc2)c1
    ., 1, 3%, 3%, ?, ., .
> c1ccc(Cn2c(CNc3nc4ccccc4n3CCN3CCCCC3)nc3ccccc32)cc1
    0.4, -31, -6%, ?, -1.1%, -13, 3%
> COc1ccc(/C=c2\s/c(=C/C(=O)c3ccc(C)cc3)[nH]c2=O)cc1OC
    ?, -14, 2%, -14%[15.4 µM], 0.7%, 13, -4%
> CC(C)Oc1ccc(C(=O)O)c(C(=O)O)c1
    -3.4, -5, 5%, 22%, -1.7%, ?, -10%
> COc1ccc(N2CCN(C(=O)CSc3nc4nc(C)cc(C)n4n3)CC2)cc1
    ., -21, -9%, 11%, 0.5%, 2, .
> CN(C1CCCCC1)C(CNS(=O)(=O)c1ccc(Cl)cc1)c1ccccc1 (stereo not given)
    -0.5, -5, 10%, ?, 0.3%, -15, 16%
> CCCCN(C(=O)c1ccccc1F)c1c(N)n(CCC)c(=O)[nH]c1=O
    -2.6, 2, 8%, 1%[15.4 µM], 1.4%, 21, 8%
> Cc1ccccc1Sc1ncnc2onc(C)c12
    1.4, 3, -10%, 15%, -5.0%, 23, 2%
> CCOC(=O)Nc1ccc2c(COC(=O)CN(C)S(=O)(=O)c3ccc(C)cc3)cc(=O)oc2c1
    ., -2, 2%, 11%[15.4 µM], ., ., .
> Cc1ccc(C)c(-n2c(CNC(=O)c3ccco3)nnc2SCC(=O)Nc2nnc(C)s2)c1
    -0.7, -11, 0%, ?, -0.1%, ., -8%
> CC(=O)NC1C(OCc2ccccc2)OC(COC(C)=O)C(OC(C)=O)C1OC(C)=O (stereo not given)
    -6.8, -6, 2%, -105%[inhibitor], -3.0%, -1, 22%
> CCN(CC)C(=O)CN1C(=O)c2cccc3cccc(c23)C1=O
    -1.5, -5, 3%, -9%[15.4 µM], ., 1, -6%
> CCC(C)NC(=O)Cn1c(-c2ccccc2)cc(C(C)=O)c1C (stereo not given)
    4.0, -7, 6%, -12%, 0.9%, -20, 7%
> CNC(=O)c1c(C)noc1C
    -1.2, -4, 11%, 2%[15.4 µM], ., 11, 8%
> C=CCn1c(C(CCC(C)C)CC(C)(C)O)n[nH]c1=S (stereo not given)
    2.6, 1, 9%, 12%, -0.4%, -6, -8%
> Cc1ccc(NC(=O)C2CCCN(S(=O)(=O)c3cnc[nH]3)C2)c(Br)c1 (stereo not given)
    1.0, -5, 3%, -22%, -1.1%, 22, 9%
> O=C(NC1CC2CCCC(C1)N2Cc1ccccc1)c1cccc(Cl)c1 (stereo not given)
    0.4, -16, -2%, 7%[15.4 µM], -1.1%, -9, 14%
> COc1ccc(NC(=O)CSCC(=O)Nc2ccccc2N2CCCCC2)cc1
    ., -3, -22%, -7%[15.4 µM], ., 4, .
> O=C(/C=C/c1ccco1)NC(=S)Nc1cc(C(F)(F)F)ccc1N1CCOCC1
    20, -2, -12%, 6%[15.4 µM], ., -10, -3%
> CC(C)=CCNc1ncnc2c1c(C#N)cn2C1OC(CO)C(O)C1O (stereo not given)
    ., -9, 4%, 10%, 0.5%, ., .
> CCN(CC)C(=O)C1=C(C)Nc2nnnn2C1c1cccnc1 (stereo not given)
    -0.9, -17, 4%, 38%, -2.3%, -2, 5%
> COc1ccc(N2CCN(C(c3ccc4ncccc4c3)c3nnnn3C(C)C)CC2)cc1 (stereo not given)
    -2.0, -10, -5%, -18%, -1.4%, -3, 0%
> O=C(NCCC1=CCCCC1)c1ccc(=O)oc1
    2.0, -9, -8%, -2%, -0.4%, 5, 8%
> O=C(NCc1cccnc1)C1CCCCN1S(=O)(=O)c1ccc(F)cc1 (stereo not given)
    4.2, -8, 5%, -32%[inhibitor], -1.7%, ?, 22%
> Cc1ccc(C(=O)Nc2c(C)n(C)n(-c3ccccc3)c2=O)cc1
    1.6, -9, 7%, 2%, 0.1%, 5, 5%
> N#Cc1ccc(OCC(=O)OCC(=O)N2CCc3ccccc32)cc1
    ., -17, ., -120%[inhibitor], -1.2%, ., .
> NC(=O)CSc1nnc(COc2ccccc2)n1C1CCCCC1
    5.5, -7, -12%, -28%, 1.6%, -9, -14%
> Cc1ccc(NS(=O)(=O)c2coc(C(N)=O)c2)cc1F
    -1.2, -2, 3%, -69%[inhibitor], -3.3%, 13, 5%
> CCCCCn1c(C(Cc2ccccc2)NC(C)=O)nc2ccccc21 (stereo not given)
    0.9, -5, 1%, -95%[inhibitor], 0.4%, 6, 5%
> CC1(C)Cc2c(c(-c3ccccc3)nc3sc4c(=O)[nH]c(=S)[nH]c4c23)CO1
    -1.2, -5, 1%, 16%[15.4 µM], ., -8, 1%
> O=C(CN(C(=O)Cn1nnc(-c2ccccc2F)n1)c1cccc2c1CCCC2)NCc1ccccc1
    1.5, -10, -15%, -12%, -2.5%, 12, 7%
> CC1CC(C)CN(CCCCOc2ccc([N+](=O)[O-])cc2)C1 (stereo not given)
    1.8, -22, 5%, -3%, -1.3%, 5, -5%
> COc1cc(-c2nnc(SCC(=O)O)n2-c2ccccc2)cc(OC)c1OC
    4.7, -2, 3%, ?, ., 8, -1%
> COc1cc(C(CC(=O)N2CCN(c3ccccc3)CC2)c2c(OC)cc(OC)c3ccc(=O)oc23)cc(OC)c1OC (stereo not given)
    -0.2&7.3, -12, -7%, ., -10%, 22, -4%&-5%
> OCCCNc1cc(-c2ccnc(Nc3cccc(Cl)c3)n2)ccn1
    6.2, -3, -1%, ., -2.4%, 6, -11%
> COCCCNC(=O)CN(c1cc([N+](=O)[O-])ccc1OC)S(C)(=O)=O
    -0.9, 1, 15%, -4%[15.4 µM], ., 7, 26%
> CC(=O)Nc1ccc(NCc2ccc(C)s2)cc1
    0.8, 8, 6%, -2%[15.4 µM], -1.9%, 5, -4%
> CCC1NC(=O)c2ccccc2N1c1cccc(Cl)c1 (stereo not given)
    ., -6, -3%, 14%[15.4 µM], ., ., .
> Cc1cccc(NC(=O)c2cc3c(=O)n4ccccc4nc3n(CC(C)C)c2=N)c1
    4.6, -4, 10%, -38%[inhibitor], -0.5%, 10, 2%
> C=CCn1c(C)cc(-c2csc(NC(=O)C3CCN(c4ncnc5sc(C)c(C)c45)CC3)n2)c1C
    ., -5, 2%, 24%, -5.8%, ., .
> CC1(C)N([O-])C2=C(CCCC2)[N+]1=O
    4.6, -6, -6%, 11%[15.4 µM], ., 8, -2%
> Cc1c(C(=O)NCC2CCCO2)cccc1[N+](=O)[O-] (stereo not given)
    2.0, 6, 18%, 1%, 1.4%, 2, 10%
> CC(=O)c1c(OCC(=O)N(C)C2CCCCC2)ccc2c(C)cc(=O)oc12
    ., -8, 0%, 4%, ?, ., .
> Cc1cc(C)c(S(=O)(=O)N2CCN(c3ccccn3)CC2)c(C)c1
    ., 3, -15%, 8%[15.4 µM], ., -5, .
> Cc1ccc2c(c1)C(c1ccccc1)N(C(=O)c1ccc(Br)cc1)CC(=O)N2 (stereo not given)
    10, -10, -15%, -43%[inhibitor], 2.0%, -22, -12%
> c1ccc(Cc2nnc3sc(-c4ccc5c(c4)OCCO5)nn23)cc1
    8.3, -2, 4%, 10%, 1.1%, ., ?
> CCOC(=O)c1sc(=NC(=O)/C=C/c2ccccc2)n(C)c1C
    3.7, -7, -2%, 17%, -2.8%, 20, 4%

# Continuation.
# Screens in order: Menin-MLL FL inh, D2 potentiator, gsp antagonist, gsp agonist, ClpP mod, TRPV1 PAM, Sfp PPTase inh
> CCN1CCN(CCC2Oc3cc([N+](=O)[O-])ccc3NC2=O)CC1 (stereo not given)
    2.8, -3, -2%, -2%[15.4 µM], ., -9, 16%
> COC1CCCCC1NS(=O)(=O)c1ccccc1 (stereo not given)
    1.5, -5, 4%, 16%, 28µM*, -10, 11%
> CC(NC(=O)Cc1ccccc1)C(=O)O (stereo not given)
    ., -4, -1%, ?, 0.9%, -2, .
> CC(C)(CNc1ccc([N+](=O)[O-])cc1Cl)N1CCOCC1
    -0.2, -4, 0%, 17%, ., 1, 22%
> O=C(c1cnn(C(=O)c2cccc(S(=O)(=O)N3CCOCC3)c2)c1)c1ccccc1O
    -5.7, 1, -7%, 7%[15.4 µM], 1.2%, -1, 18%
